From PubChem BioAssay
UUG fidelity: alters start codon recognition fidelity in yeast. S. cerevisiae UUG-firefly luciferase reporter, luminescence/redox ratio. activity score, % at 18.7 µM. hit rate 0.13% among 350,000;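 active means replicate mean at a twofold rise or more, about +100% in these data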;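 further: firefly luciferase made from a UUG start codon reports start codon fidelity; reporter light over untreated wells divided by growth signal over untreated wells; some hits fall short of that in this replicate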
HIV Env fusion: inhibitors of HIV Env-mediated cell fusion; HeLa-JRFL Env/CEM21 cell fusion, luciferase; inhibition, % at 12.3 µM; hit rate 1.1% among 360,000; AID 651610;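 active means mean replicate inhibition score of at least 50 and every replicate individually at or above 50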;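 further: 0% = plate neutral controls and 100% = maraviroc near 300 nM; one replicate is shown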
Numbers without * were called inactive; & = joins results of further samples; [ ] = remark or other dose. An excerpt; rates above refer to the full screens.

smiles | UUG fidelity | HIV Env fusion
C[C@H](CO)N1C[C@H](C)[C@@H](CN(C)S(=O)(=O)c2ccc(Cl)cc2)Oc2ccc(NS(=O)(=O)c3ccc(F)cc3)cc2C1=O | 13.1 | -27.9[16.7 µM]
CCC(=O)N(C)C[C@@H]1Oc2cc(C#CC(C)C)ccc2S(=O)(=O)N([C@@H](C)CO)C[C@H]1C | 12.6 | 5.1[16.7 µM]
Cc1noc(C)c1NC(=O)N(C)C[C@H]1Oc2cc(C#CCC(C)C)ccc2S(=O)(=O)N([C@H](C)CO)C[C@@H]1C | 3.9 | -54.6[16.7 µM]
C[C@@H]1CN([C@@H](C)CO)S(=O)(=O)c2ccc(-c3ccccc3)cc2O[C@H]1CN(C)C | 1.2 | -13.0[16.7 µM]
COc1ccc(NC(=O)Nc2cccc3c2O[C@H](CN(C)S(C)(=O)=O)[C@@H](C)CN([C@@H](C)CO)C3=O)cc1 | -4.4 | -12.9[16.7 µM]
C[C@@H]1CCCCO[C@@H](CN(C)S(=O)(=O)c2cccs2)[C@H](C)CN([C@@H](C)CO)C(=O)c2cc(NS(=O)(=O)c3cn(C)cn3)ccc2O1 | -2.8 | 4.4[16.7 µM]
CO[C@H]1CN(C)C(=O)c2cc(NC(=O)C3CCC3)ccc2OC[C@@H](C)N(Cc2ccncc2)C[C@H]1C | 2.7 | -45.9[16.7 µM]
C[C@H](CO)N1C[C@H](C)[C@H](CN(C)S(=O)(=O)c2ccc(Cl)cc2)Oc2ccc(NC(=O)C3CCCCC3)cc2CC1=O | 8.8 | 63.2*[16.7 µM]
C[C@H]1CCCCO[C@@H](CN(C)C(=O)Nc2ccc3c(c2)OCO3)[C@@H](C)CN([C@@H](C)CO)C(=O)c2cc(NC(=O)Nc3ccc(C(F)(F)F)cc3)ccc2O1 | -19.3 | 14.2[16.7 µM]
C[C@@H]1CN([C@@H](C)CO)C(=O)c2cc(NC(=O)Cc3cn(C)c4ccccc34)ccc2O[C@@H]1CN(C)Cc1ccc(Oc2ccccc2)cc1 | 11.2 | 5.0[16.7 µM]
C[C@H](CO)N1C[C@H](C)[C@H](CN(C)Cc2ccc(C(=O)O)cc2)Oc2cc(C#CCC3CCCC3)ccc2S1(=O)=O | 182.0* | -9.3[16.7 µM]
C[C@H](CO)N1C[C@H](C)[C@H](CN(C)CC2CC2)Oc2cc(C#Cc3cccc(F)c3)ccc2S1(=O)=O | 4.5 | 11.5[16.7 µM]
CO[C@@H]1CN(C)C(=O)c2cc(NC(C)=O)ccc2OC[C@H](C)N(Cc2ccccc2F)C[C@@H]1C | -3.3 | -18.9[16.7 µM]
Cc1noc(C)c1NC(=O)N(C)C[C@@H]1Oc2c(NS(=O)(=O)c3c(C)noc3C)cccc2C(=O)N([C@@H](C)CO)C[C@@H]1C | 1.3 | -43.7[16.7 µM]
C[C@H](CO)N1C[C@H](C)[C@@H](CN(C)S(=O)(=O)c2ccc(F)cc2)Oc2c(NS(C)(=O)=O)cccc2C1=O | 1.5 | 22.2[16.7 µM]
COc1ccc(S(=O)(=O)N[C@@H]2C=C[C@H](CC(=O)NCCc3ccccc3)O[C@H]2CO)cc1 | -7.2 | 13.5[16.7 µM]
C[C@@H]1CN([C@H](C)CO)C(=O)CCCn2nncc2CO[C@@H]1CN(C)Cc1ccc(-c2ccccc2)cc1 | 4.9 | 18.2[16.7 µM]
C[C@H]1CN([C@@H](C)CO)C(=O)Cc2cc(NS(=O)(=O)c3cccs3)ccc2O[C@H]1CN(C)S(C)(=O)=O | -6.6 | 5.4[16.7 µM]
C[C@@H]1CN([C@@H](C)CO)C(=O)c2cccc(NC(=O)C3CCOCC3)c2O[C@@H]1CN(C)C(=O)Nc1cccc2ccccc12 | -1.2 | -12.5[16.7 µM]
C[C@@H](O)C#Cc1cnc2c(c1)C(=O)N([C@@H](C)CO)C[C@H](C)[C@@H](CN(C)C(=O)c1ccc(F)cc1)O2 | 38.6 | -10.1[16.7 µM]

Two of these compounds in a different format.
UUG fidelity	HIV Env fusion	structure
2.7	-45.9[16.7 µM]	CO[C@H]1CN(C)C(=O)c2cc(NC(=O)C3CCC3)ccc2OC[C@@H](C)N(Cc2ccncc2)C[C@H]1C
8.8	63.2*[16.7 µM]	C[C@H](CO)N1C[C@H](C)[C@H](CN(C)S(=O)(=O)c2ccc(Cl)cc2)Oc2ccc(NC(=O)C3CCCCC3)cc2CC1=O

The main list resumes, starting 3 compounds before the break.
smiles | UUG fidelity | HIV Env fusion
C[C@H]1CN([C@@H](C)CO)C(=O)Cc2cc(NS(=O)(=O)c3cccs3)ccc2O[C@H]1CN(C)S(C)(=O)=O | -6.6 | 5.4[16.7 µM]
C[C@@H]1CN([C@@H](C)CO)C(=O)c2cccc(NC(=O)C3CCOCC3)c2O[C@@H]1CN(C)C(=O)Nc1cccc2ccccc12 | -1.2 | -12.5[16.7 µM]
C[C@@H](O)C#Cc1cnc2c(c1)C(=O)N([C@@H](C)CO)C[C@H](C)[C@@H](CN(C)C(=O)c1ccc(F)cc1)O2 | 38.6 | -10.1[16.7 µM]
COc1ccc(S(=O)(=O)Nc2ccc3c(c2)CC(=O)N([C@@H](C)CO)C[C@H](C)[C@H](CN(C)C(=O)Nc2ccc4c(c2)OCO4)O3)cc1 | 11.6 | 3.0[16.7 µM]
C[C@H](NC(=O)C[C@H]1CC[C@@H]2[C@H](COC[C@H](O)CN2C)O1)c1ccccc1 | -12.3 | 2.3[16.7 µM]
O=C(N[C@@H]1CC[C@@H](CCNS(=O)(=O)c2ccc(F)cc2)O[C@@H]1CO)C1CCCC1 | 8.5 | -4.8[16.7 µM]
Cc1noc(C)c1NC(=O)Nc1ccc2c(c1)C(=O)N([C@H](C)CO)C[C@@H](C)[C@@H](CN(C)S(=O)(=O)c1ccccc1)O2 | 16.5 | 15.1[16.7 µM]
O=C(C[C@@H]1C=C[C@@H](NC(=O)c2ccc3c(c2)OCO3)[C@@H](CO)O1)NCc1ccc(F)cc1 | -12.0 | 1.0[16.7 µM]
C[C@@H]1CCCCO[C@H](CN(C)S(=O)(=O)c2cccs2)[C@@H](C)CN([C@H](C)CO)C(=O)c2cc(NC(=O)Nc3ccc(F)cc3)ccc2O1 | -23.7 | -5.2[16.7 µM]
C[C@H](O)C#Cc1ccc2c(c1)O[C@H](CN(C)C(=O)C1CCCCC1)[C@@H](C)CN([C@@H](C)CO)S2(=O)=O | -3.1 | -4.9[16.7 µM]
CN(C)C(=O)C[C@@H]1C=C[C@H](NS(=O)(=O)c2ccccc2)[C@@H](CO)O1 | -4.2 | -6.5[16.7 µM]
Cc1ccc(S(=O)(=O)Nc2ccc3c(c2)C(=O)N([C@@H](C)CO)C[C@@H](C)[C@@H](CN(C)C(=O)Nc2ccc(C(F)(F)F)cc2)OCCCC[C@@H](C)O3)cc1 | -8.3 | 12.4[16.7 µM]
Cc1ccc(S(=O)(=O)N[C@@H]2C=C[C@H](CC(=O)NCCCN(C)C)O[C@H]2CO)cc1 | -6.5 | 10.4[16.7 µM]
C[C@@H]1CN([C@H](C)CO)C(=O)c2cc(C#CC3(O)CCCC3)cnc2O[C@@H]1CN(C)Cc1cncnc1 | 3.5 | 5.8[16.7 µM]
C[C@H](NC(=O)C[C@@H]1C=C[C@@H](NS(=O)(=O)c2cccc(F)c2)[C@@H](CO)O1)c1ccccc1 | -9.3 | -2.1[16.7 µM]
C[C@@H]1CN([C@H](C)CO)S(=O)(=O)c2ccc(-c3ccccc3)cc2O[C@@H]1CN(C)Cc1ccccc1 | 17.7 | 64.6*[16.7 µM]
C[C@H](CO)N1C[C@H](C)[C@H](CN(C)C(=O)Nc2ccc3c(c2)OCO3)OCc2cnnn2CCCC1=O | 8.6&-12.2 | 27.5
C[C@H](CO)N1C[C@H](C)[C@@H](CN(C)Cc2ccncc2)Oc2cc(-c3cccnc3)ccc2S1(=O)=O | 6.6 | -2.3[16.7 µM]
C/C=C/c1ccc2c(c1)O[C@H](CN(C)C(=O)Cc1ccncc1)[C@@H](C)CN([C@H](C)CO)S2(=O)=O | -0.3 | -36.2[16.7 µM]
CCCNC(=O)C[C@H]1C[C@H]2c3cc(NS(=O)(=O)c4ccccc4)ccc3O[C@H]2[C@@H](CO)O1 | 0.9 | 0.7[16.7 µM]
CN(C)CC(=O)N1[C@H](CO)[C@@H](c2ccc(C#CC3CCCCC3)cc2)[C@@H]1C#N | 10.6 | -4.8[16.7 µM]
COc1ccc(CN(C)C[C@@H]2OCCCC[C@@H](C)Oc3ccc(NC(=O)c4ccncc4)cc3C(=O)N([C@H](C)CO)C[C@@H]2C)cc1 | -9.1 | -9.0[16.7 µM]
O=C(Nc1cc(F)ccc1F)N[C@H]1CC[C@H](CCn2cc(C3CCCCC3)nn2)O[C@@H]1CO | 12.1 | 18.0[16.7 µM]

Later entries:
canonical_smiles,UUG fidelity,HIV Env fusion
C/C=C/c1cnc2c(c1)C(=O)N([C@@H](C)CO)C[C@@H](C)[C@H](CN(C)C(=O)NC1CCCCC1)O2,3.0,-15.6[16.7 µM]
C[C@@H]1CN([C@H](C)CO)C(=O)c2cc(C#CCN(C)C)cnc2O[C@H]1CN(C)Cc1cccc(F)c1,4.7,6.3[16.7 µM]
COc1ccc(NC(=O)N(C)C[C@@H]2Oc3ncc(-c4ccc(F)cc4)cc3C(=O)N([C@H](C)CO)C[C@@H]2C)cc1,17.0,-1.6[16.7 µM]
CC(C)NC(=O)Nc1ccc2c(c1)C(=O)N([C@@H](C)CO)C[C@H](C)[C@@H](CN(C)S(=O)(=O)c1ccc(Cl)cc1)OCCCC[C@@H](C)O2,-2.9,-33.1[16.7 µM]
CNC[C@@H]1Oc2cc(C#Cc3ccccc3)ccc2S(=O)(=O)N([C@H](C)CO)C[C@H]1C,12.4,4.0[16.7 µM]
CCCNC(=O)C[C@H]1CC[C@@H]2[C@H](COc3ccc(NC(=O)c4ccccc4)cc3C(=O)N2C)O1,16.6,-13.6[16.7 µM]
C[C@H]1CN([C@@H](C)CO)C(=O)Cc2cc(NC(=O)Cc3ccccc3)ccc2O[C@@H]1CN(C)C(=O)Nc1ccc(C(F)(F)F)cc1,14.1,-11.1[16.7 µM]
COc1cccc(S(=O)(=O)N(C)C[C@@H]2Oc3ncc(C#CCN(C)C)cc3C(=O)N([C@@H](C)CO)C[C@@H]2C)c1,13.5,-0.4[16.7 µM]
COc1ccc(CN2C[C@H](O)COC[C@H]3O[C@H](CC(=O)NCCN4CCCC4)CC[C@@H]32)cc1,0.2,10.9[16.7 µM]
CN(C)CC(=O)N[C@H]1CC[C@H](CCn2cc(C3CCCCC3)nn2)O[C@@H]1CO,-9.6,4.5[16.7 µM]
O=C(Nc1ccc2c(c1)[C@H]1C[C@@H](CC(=O)N3CCOCC3)O[C@H](CO)[C@H]1O2)c1cccnc1,-6.7,-6.1[16.7 µM]
C[C@H]1CN([C@@H](C)CO)C(=O)Cc2cc(N(C)C)ccc2O[C@H]1CN(C)C(=O)Nc1ccccc1,10.3,4.9[16.7 µM]
C[C@H]1CN([C@@H](C)CO)C(=O)c2cc(NS(=O)(=O)c3cccs3)ccc2O[C@H]1CN(C)CC1CC1,1.7,-17.4[16.7 µM]
C[C@H](CO)N1C[C@H](C)[C@H](CN(C)S(=O)(=O)c2cn(C)cn2)Oc2ccc(NC(=O)Nc3ccc(F)cc3)cc2C1=O,10.9,-2.5[16.7 µM]
CN(C)C(=O)C[C@H]1CC[C@H](NC(=O)C2CCC2)[C@@H](CO)O1,-11.8,-3.1[16.7 µM]
C[C@H]1CN([C@@H](C)CO)C(=O)c2cc(NC(=O)Cc3ccccc3)ccc2O[C@H]1CN(C)C(=O)Nc1ccccc1,4.7,-6.4[16.7 µM]
N#C[C@@H]1[C@H](c2ccc(-c3cccc(F)c3)cc2)[C@H](CO)N1C(=O)c1cccnc1,-6.8,66.5*[16.7 µM]
C[C@@H]1CN([C@H](C)CO)C(=O)Cc2cc(NC(=O)C3CC3)ccc2O[C@@H]1CN(C)Cc1ccc(Oc2ccccc2)cc1,-3.5,-3.0[16.7 µM]
O=C(C[C@H]1C=C[C@H](NS(=O)(=O)c2ccccc2)[C@H](CO)O1)NCCN1CCCCC1,-16.8,-13.1[16.7 µM]
C[C@H]1CN([C@@H](C)CO)C(=O)c2cccc(NC(=O)NC3CCCCC3)c2O[C@@H]1CN(C)Cc1ccccc1,5.9,11.4[16.7 µM]
O=C(Nc1ccc(F)cc1)N[C@@H]1C=C[C@@H](CC(=O)N2CCOCC2)O[C@H]1CO,-12.7,-17.6[16.7 µM]
C[C@@H]1CN([C@@H](C)CO)C(=O)c2cc(C3=CCCC3)cnc2O[C@@H]1CN(C)C(=O)Nc1ccc(F)cc1,3.0,1.3[16.7 µM]
Cc1noc(C)c1S(=O)(=O)N(C)C[C@H]1OCCCC[C@@H](C)Oc2ccc(NC(=O)CCCCCC(=O)Nc3ccccc3N)cc2C(=O)N([C@@H](C)CO)C[C@@H]1C,6.1,-54.5[16.7 µM]
C[C@@H]1CCCCO[C@H](CN(C)C(=O)CCC(F)(F)F)[C@@H](C)CN([C@H](C)CO)C(=O)c2cc(NC(=O)Cc3ccccc3)ccc2O1,4.3,-10.7[16.7 µM]
Cc1ccc(S(=O)(=O)Nc2ccc3c(c2)C(=O)N([C@H](C)CO)C[C@@H](C)[C@H](CN(C)C(=O)c2ccccc2)OCCCC[C@@H](C)O3)cc1,15.5,-8.7[16.7 µM]
CC(C)NC(=O)N(C)C[C@@H]1OCCCC[C@@H](C)Oc2ccc(NC(=O)Nc3ccc(F)cc3)cc2C(=O)N([C@H](C)CO)C[C@H]1C,16.2,-78.3[16.7 µM]
CC(C)NC(=O)N(C)C[C@H]1Oc2cc(C3=CCCCC3)ccc2S(=O)(=O)N([C@@H](C)CO)C[C@@H]1C,11.4,14.3[16.7 µM]
Cc1ccc(S(=O)(=O)N(C)C[C@@H]2OCCCC[C@@H](C)Oc3ccc(NC(=O)C4CCCCC4)cc3C(=O)N([C@H](C)CO)C[C@H]2C)cc1,6.0,8.2[16.7 µM]
